Source: PubChem BioAssay (several laboratories)
Arbovirus anti – blocks arbovirus infection; arbovirus infection cell-based antiviral screen; inhibition, % at 10 µM; hit rate 0.37% among 200,000; AID 1251;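 active = inhibition from about 30%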;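 also: bluetongue infection of BSR cells; cell survival read as ATP light after 72 h; 0% = infected wells without compound and 100% = uninfected wells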
Mtb H37Rv – M. tuberculosis H37Rv growth inhibitors, H37Rv strain (AID 1626). M. tuberculosis H37Rv growth inhibition; higher % means a stronger effect. one-dose inhibition, % at 10 µM; IC50 in µM for titrated hits. hit rate 0.95% among 220,000;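 active = confirmed in a dose series; inconclusive = inhibition above 80% but not taken into the dose series; inactive = below 80% or under 30% at every dose of the series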;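 also: bacteria incubated seven days before Alamar blue readout; 0% = bacteria only wells and 100% = bacteria with antibiotic wells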
YopH inh – YopH (Yersinia) phosphatase inhibition | fluorescence Ex485/Em525 | inhibition, %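 (about 10 µM by stock and volumes)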 | hit rate 0.16% among 140,000 | AID 898;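 active = inhibition of 50% or more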;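 also: controls were vehicle for no effect and minimum signal wells for full effect; inactives centre near -20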
RecA splice inh – blocks M. tuberculosis RecA intein splicing. P9WHJ3. cell-free RecA intein splicing, fluorescence. inhibition, %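 (about 9 µM by stock and volumes)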. hit rate 0.75% among 290,000; in the data active = inhibition above about 30%; inconclusive = no clear call, values can overlap the other calls;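 also: 0% = vehicle wells and 100% = reference inhibitor control wells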
Target sequence (P9WHJ3 whole entry, looked up, canonical isoform): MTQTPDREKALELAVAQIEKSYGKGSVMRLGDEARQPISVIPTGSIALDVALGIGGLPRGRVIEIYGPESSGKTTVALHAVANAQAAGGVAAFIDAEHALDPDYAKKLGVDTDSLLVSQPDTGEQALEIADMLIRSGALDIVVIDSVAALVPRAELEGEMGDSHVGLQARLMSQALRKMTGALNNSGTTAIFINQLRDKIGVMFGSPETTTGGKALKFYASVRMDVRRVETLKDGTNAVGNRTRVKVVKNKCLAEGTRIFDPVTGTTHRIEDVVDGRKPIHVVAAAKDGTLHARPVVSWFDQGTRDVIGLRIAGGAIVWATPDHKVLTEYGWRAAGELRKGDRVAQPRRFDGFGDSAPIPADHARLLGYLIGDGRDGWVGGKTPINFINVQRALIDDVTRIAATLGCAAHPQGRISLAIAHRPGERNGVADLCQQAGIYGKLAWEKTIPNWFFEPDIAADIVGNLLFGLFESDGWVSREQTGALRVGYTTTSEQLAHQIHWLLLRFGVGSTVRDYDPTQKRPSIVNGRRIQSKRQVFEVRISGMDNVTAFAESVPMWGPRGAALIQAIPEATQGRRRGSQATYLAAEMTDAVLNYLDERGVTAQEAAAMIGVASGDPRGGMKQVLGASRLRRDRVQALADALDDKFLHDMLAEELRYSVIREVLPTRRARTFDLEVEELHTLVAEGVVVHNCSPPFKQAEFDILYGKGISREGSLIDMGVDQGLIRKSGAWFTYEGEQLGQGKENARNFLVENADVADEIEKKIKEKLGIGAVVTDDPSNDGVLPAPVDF
Mtb betalactam – beta-lactam sensitization of Mtb H37Rv; M. tuberculosis H37Rv growth with meropenem, percent inhibition; hits of this screen are not shown here; inhibition, % at 25 µM; hit rate 0.27% among 330,000; AID 434955;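 active = about 74% or more and at least 40 points above the plate without the antibiotic, then above 30% in a dose series; inconclusive = first-round hits that could not be retested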;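 also: growth measured after seven days incubation then overnight dye step; 0% = bacteria only wells and 100% = bacteria with antibiotic; twin plates without the antibiotic show which effects depend on it; some results filed as inactive read as strong as hits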
Arbovirus anti repeat – also measured in Arbovirus anti; calls as there; inhibition, %; measured here: 10K subset replicate screen; many hits read low in the repeat;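 first of two repeat runs on a subset; 0% = infected and 100% = uninfected wells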
Starred values were filed as active, the others as inactive; ? = inconclusive; · = no result given. Only part of the results is shown; the hit share may differ from the screen's.

SMILES | Arbovirus anti | Mtb H37Rv | YopH inh | RecA splice inh | Mtb betalactam | others
CC1CC1c1ccc(/C=C(\C#N)C(=O)Nc2ccc(Cl)cc2)o1 (stereo not given) | 0 | · | -10 | 5.5 | 89
COc1ccccc1N(CC(=O)N1CCOCC1)S(C)(=O)=O | · | · | · | -1.3 | 2
CC/C(=N\NC(N)=O)c1ccc(OC(F)F)cc1 | · | 6% | · | 1.1 | -1
Cc1cccnc1NC(=S)NC(=O)c1oc2ccccc2c1C | · | · | · | -2.9 | -8
O=S(=O)(Cc1ccccc1)N1CCN(C2Cc3ccccc3C2)CC1 | -12 | -13% | -21 | 0.9 | 0
Cc1[nH]c2ccccc2c1/C=N/Nc1nc2ccccc2[nH]1 | · | 18% | · | 34* | 82
O=C(O)CSCC(=O)Nc1ccc(-c2nc3ccccc3s2)cc1 | · | -11% | · | -6.6 | -3
COc1cc([N+](=O)[O-])cc(/C=N/NC(=O)c2ccc(NC(=O)c3ccc(C)cc3)cc2)c1O | -22 | 8% | · | 0.6 | ·
CCOCCCNC(=O)c1cc2c(=O)n3cccc(C)c3nc2n1C | -5 | 1% | · | -10 | -2 | Arbovirus anti repeat=-9
Cc1ccc(C(=O)NCC(=O)N2CCN(c3ncccn3)CC2)s1 | 5 | -6% | -5 | 0.0 | 8
COc1cccc(C2CN(c3ccc(F)cc3F)N=C2c2cccs2)c1OC (stereo not given) | -12 | · | 0 | -66 | 9
CCn1ccnc1CN(C)Cc1cn(C)nc1-c1ccccc1F | 6 | -2% | · | 1.2 | -2
Cc1ccc2cc3cc(C(=O)NCCCN4CCc5ccccc5C4)oc3nc2c1 | -9 | -12% | -44 | 3.0 | -1
O=C(Nc1c2c(nn1-c1ccc(F)cc1)CS(=O)(=O)C2)C1CCCC1 | · | · | · | -0.8 | 4
O=C(Nc1ccc(Cl)c(Cl)c1)OCc1cccnc1 | -28 | 0% | -47 | 1.9 | 16
CC(=O)C1C(c2cn(-c3ccccc3)nc2-c2cccs2)NC(=O)NC1(O)C(F)(F)F (stereo not given) | 14 | · | -18 | -6.4 | 0
COc1cc(NC(=O)c2ccccc2)c(OC)cc1NC(=O)Cc1ccc(F)cc1 | · | · | · | 0.4 | 8
Cc1cc(S(=O)(=O)N2CCN(C(=O)c3ccco3)CC2)ccc1F | · | · | · | 11 | -3
CC(=O)Nc1cccc(NC(=O)C(=O)c2cn(CC(=O)N3CCCCC3)c3ccccc23)c1 | 1 | 9% | · | -0.2 | 4
CN1CCN(c2ccccc2N)CC1 | 8 | 4% | -7 | 2.3 | -3
COc1ccc(S(=O)(=O)N2CCN(C)CC2)cc1NC(=O)c1ccccc1F | · | · | · | -4.4 | -2
COc1ccc(CNCc2ccc([N+](=O)[O-])cc2)cc1OC | · | · | · | 0.8 | -3
O=C(O)c1ccc2c(=O)n3c(nc2c1)/C(=C/c1cccc(O)c1)CC3 | · | · | · | 0.5 | 2
Cc1ccc(S(=O)(=O)n2nccc2-c2c(-c3ccc(Cl)cc3)noc2C)cc1 | · | 0% | · | 0.3 | 35
COc1ccc(S(=O)(=O)N2CCCC2CNC(=O)C(=O)Nc2ccc(C)cc2)cc1 (stereo not given) | · | · | · | -1.7 | -3

Next part, starting with the last two of the part before.
SMILES | Arbovirus anti | Mtb H37Rv | YopH inh | RecA splice inh | Mtb betalactam | others
Cc1ccc(S(=O)(=O)n2nccc2-c2c(-c3ccc(Cl)cc3)noc2C)cc1 | · | 0% | · | 0.3 | 35
COc1ccc(S(=O)(=O)N2CCCC2CNC(=O)C(=O)Nc2ccc(C)cc2)cc1 (stereo not given) | · | · | · | -1.7 | -3
O=C(Nc1ccccc1)c1ccccc1CSc1ccccc1 | · | · | · | 5.3 | -1
O=C(NCc1cccnc1)/C(=C\c1ccc(-c2ccc(Cl)c(Cl)c2)o1)S(=O)(=O)c1ccccc1 | -41 | ? | 9 | 24 | 20
O=c1c2ccccc2[nH]c(=S)n1Cc1cccs1 | -1 | 6% | 1 | 0.0 | 5
COc1cc(C(=O)Nc2ccc3nc4n(c(=O)c3c2)CCCCC4)cc(OC)c1OC | · | · | · | -8.9 | 3
CCN(C(=O)CSc1ncn[nH]1)C1CCCCC1 | 6 | -12% | -18 | 1.3 | -1
O=C(CCCc1nc(-c2ccccc2Cl)no1)NC1CCCCC1 | -3 | 3% | -17 | 4.8 | -10
COC(=O)[C@@]1(Cc2ccc(F)cc2)[C@H]2c3cc(C(=O)N4CCCC4)n(CCO)c3C[C@H]2CN1C(=O)c1ccccc1 | 6 | -11% | 1 | · | -6
O=C(Cn1nnc(-c2cccc(C(F)(F)F)c2)n1)N1CCOCC1 | 7 | -3% | -27 | 0.6 | 6
CCCS(=O)(=O)N1CCN(C(=O)c2cccs2)CC1 | 1 | -4% | 8 | 0.2 | -5
O=C(c1ccc(F)cc1)N1CCN(C2CCCCC2)CC1 | · | · | · | -1.4 | -3
C(=C\c1ccccc1)/C=N/N1CCN(Cc2ccccc2)CC1 | 1 | -9% | · | 3.7 | -3
O=C(COc1ccc(/C=N/NC(=O)CSCc2ccc([N+](=O)[O-])cc2)cc1)NCc1ccco1 | -5 | -3% | -37 | 1.3 | 10
O=C(O)/C=C\c1cc2c(cc1[N+](=O)[O-])OCO2 | · | -14% | · | -5.7 | -5
Cc1ccc(-c2csc(N3C(=N)SCC3=O)n2)cc1 | · | -8% | · | -8.3 | -4
COC(=O)C1=C(C)NC2=C(C(=O)CC(C)(C)C2)C1c1cnn(C)c1C (stereo not given) | -1 | 0% | -33 | -24 | 1
COc1ccccc1NC(=S)N1CCCCCC1 | · | · | · | -1.8 | -7
COC(=O)CN1C(=O)C(C)(C)Oc2ccc(C(=O)Nc3ccccc3F)cc21 | · | · | · | 6.9 | -7
CCCOc1cccc(C2/C(=C(/O)c3ccc(OC)cc3)C(=O)C(=O)N2CCN(C)C)c1 (stereo not given) | -1 | -1% | -41 | 0.7 | 6
COc1ccc(S(=O)(=O)N(CC(=O)O)c2ccccc2)cc1 | 5 | -8% | 4 | -1.7 | -5
CC(=O)c1sc2c(c1OC(=O)c1ccc(Cl)cc1Cl)c(=O)n(-c1ccccc1)c(=S)n2-c1ccccc1 | · | -19% | · | 0.9 | 14
O=C1c2ccccc2C(=O)N1c1cccc2ccccc12 | · | · | · | 1.2 | 2
Cc1nc(SCC(=O)c2ccc(F)cc2)n[nH]1 | 1 | 6% | -15 | 4.0 | 0
Cc1ccc(C)c(NC(=O)Cn2nc(C)c3ccccc3c2=O)c1 | · | -6% | · | -2.1 | ?
COc1ccc(N=C2S/C(=C\c3cccs3)C(=O)N2CC(C)C)cc1 | -6 | 2% | 13 | 0.2 | -5
CC(=O)c1c(OC(=O)c2ccco2)c2ccccc2n1C | -5 | · | -38 | 11 | 10 | Arbovirus anti repeat=-5

A draw from above in order of heavy-atom count, largest number first.
SMILES | Arbovirus anti | Mtb H37Rv | YopH inh | RecA splice inh | Mtb betalactam | others
COC(=O)CN1C(=O)C(C)(C)Oc2ccc(C(=O)Nc3ccccc3F)cc21 | · | · | · | 6.9 | -7
O=C(c1ccc(F)cc1)N1CCN(C2CCCCC2)CC1 | · | · | · | -1.4 | -3
Cc1ccc(-c2csc(N3C(=N)SCC3=O)n2)cc1 | · | -8% | · | -8.3 | -4

Going on with the list:
SMILES | Arbovirus anti | Mtb H37Rv | YopH inh | RecA splice inh | Mtb betalactam | others
Cc1cccc(C)c1OCC(=O)NCc1nnc(SCC(=O)NC2CCCCC2)n1C | 1 | 0% | -6 | -1.1 | -13
Cc1ccn2c(NCc3ccc4c(c3)OCO4)c(-c3ccc(O)cc3)nc2c1 | -7 | 11% | 3 | -3.1 | 4
CCc1ccc(C(=O)CN(C#N)c2nc(C)cc(C)n2)cc1 | -30 | 6% | -99 | 2.0 | 3
COc1ccc(CC(=O)Nc2ccc(S(=O)(=O)N3CCCCC3)cc2)cc1OC | · | · | · | -1.3 | -1
Cc1nc(-c2ccccc2)sc1C1(C)CC(c2cccc(F)c2)=NO1 (stereo not given) | · | -8% | · | 3.3 | -9
Cc1ccc(S(=O)(=O)NCC(=O)N2CCCCC2)cc1 | -2 | -4% | -51 | 0.6 | -4 | Arbovirus anti repeat=2
Cc1[nH]n(-c2ccccc2)c(=O)c1C(c1cccc([N+](=O)[O-])c1)c1c(C)[nH]n(-c2ccccc2)c1=O | 1 | 1% | -9 | 85* | 6
COc1ccccc1C(CNC(=O)c1ccc(NS(=O)(=O)c2ccc(F)c(C)c2)cc1)N(C)C (stereo not given) | · | · | · | 7.1 | 11
O=C(O)CNC(=O)CC12CC3CC(CC(C3)C1)C2 | -2 | 1% | -23 | 0.8 | 0
NNC(=O)Cc1csc(-c2ccccc2)n1 | · | -5% | · | -2.3 | -8
C=C(c1ccccc1C)[n+]1ccccc1 | · | · | · | -4.4 | -5
CCn1nc(C)c(/C=N/NC(=O)Cn2nnnc2N)c1C | · | 7% | · | 0.0 | -8
CC(C)(C)c1ccc(N=C2SCC(=O)N2Cc2cccs2)cc1 | · | 16% | · | · | 5
COc1ccc(C(=O)NC(C(=O)N2CCc3ccccc32)C(C)C)cc1 (stereo not given) | -1 | 6% | -30 | 0.8 | 1
O=C(/C=C/c1ccc(F)cc1)NCCCn1ccnc1 | · | · | · | -0.2 | 3
COc1ccc(Oc2cc(F)nc(N)n2)cc1 | 10 | 20% | -21 | 1.2 | -6
Cc1nnc(SCC(=O)Nc2nsc(-c3ccccc3)n2)s1 | 17 | 1% | 2 | -1.1 | -13
COC(=O)C(c1cc(OC)c(O)c(OC)c1)(N1CCNC(C)C1)C(F)(F)F (stereo not given) | -3 | 0% | -37 | -7.3 | 5
O=C(CSc1nc2cc(Cl)ccc2s1)NCc1ccc2c(c1)OCO2 | -3 | 6% | -19 | -1.4 | 0
CCOc1ccc(-c2cccc(NC(=O)COc3ccccc3)c2)nn1 | · | · | · | 4.9 | ?
COc1ccc(N(CC(=O)O)S(C)(=O)=O)cc1OC | 3 | -1% | -7 | -1.3 | -9
O=[N+]([O-])c1ccc(Sc2nccn2Cc2ccccc2)c([N+](=O)[O-])c1 | -13 | 8% | -12 | 26 | 17
NC(=O)CSc1nc2scc(-c3ccc(Cl)cc3)c2c(=O)n1Cc1ccccc1 | 1 | 9% | -3 | -0.2 | 2
O=C(CCCCCNC(=O)N1CCn2c1nc1ccccc12)NCc1ccc(F)cc1 | · | · | · | -1.5 | -2
O=C(Cn1nc(-c2ccc3c(c2)OCCO3)ccc1=O)Nc1cccc(NC(=O)c2ccccn2)c1 | -4 | 7% | · | 1.9 | 2

(further entries)
SMILES | Arbovirus anti | Mtb H37Rv | YopH inh | RecA splice inh | Mtb betalactam | others
COc1ccc(CNC(=O)COC(=O)CO/N=C(\C)c2ccc3c(c2)OCO3)cc1 | · | · | · | -4.1 | 0
CC1=NN(c2nc(-c3ccc(F)cc3)cs2)C(=O)C1 | 9 | -9% | 13 | -3.3 | 8
CCCN1CCN(c2ncnc3scc(C4COc5ccccc5O4)c23)CC1 (stereo not given) | 1 | · | · | -3.2 | -1
Cc1cccc(OCC(=O)N2CCN(Cc3ccc([N+](=O)[O-])cc3)CC2)c1 | 3 | -12% | · | -3.2 | -8
Cc1ccc(CNC(=O)C2CC(c3ccc([N+](=O)[O-])cc3)=NO2)cc1 (stereo not given) | 2 | 6% | -26 | 1.4 | 2
CCCc1cnc(NCCNCC(O)COc2ccc(Cl)c(Cl)c2)nc1 (stereo not given) | · | 51% | · | -1.5 | 97
O=C(NC(=S)Nc1cccc(Cl)c1)c1cncc(Br)c1 | · | · | · | 1.9 | -4
CCCCn1ccc(O)c(Cc2ccc(F)cc2)c1=O | 5 | 6% | -25 | -3.7 | -9
COc1ccc(CNC(=S)Nc2ccc(F)c(Cl)c2)cc1 | 10 | 9% | · | 1.0 | 5
O=c1[nH]cnc2c1N1CCC2CC1 | 1 | -4% | -33 | 3.8 | 3
COc1cc(CC(=O)NCc2ccco2)cc(OC)c1OC | -1 | -8% | 5 | -8.3 | 2
Cc1c(Cl)c([N+](=O)[O-])nn1CC(=O)Nc1ccc2c(c1)OCO2 | -4 | 2% | -24 | 1.2 | -4
CCOC(=O)c1c(CSc2ccccc2)n(C)c2ccc(O)c(CN3CCN(C)CC3)c12 | · | -7% | · | -5.2 | -5
CC(C)COP(=O)(c1ccc(N(C)C)cc1)C(O)c1ccc(Br)cc1 (stereo not given) | · | · | · | -0.6 | 5
COc1ccc(CCNC(=O)COc2ccc(C)nc2[N+](=O)[O-])cc1OC | 18 | 1% | · | -0.3 | 11
CCCCc1ccc(NS(=O)(=O)c2c(C)n(C)c(=O)n(C)c2=O)cc1 | · | · | · | -1.3 | 3
Cc1ccccc1Nc1nc(N)nc(CSc2nc3ccccc3s2)n1 | 8 | 14% | -10 | 0.7 | 91
O=C(O)CN1CCCC1=Nc1ccccc1 | 8 | 3% | -25 | -0.3 | ·
CN(C)C(=O)Cn1cc(S(=O)(=O)Cc2ccccc2)c2ccccc21 | · | · | · | -0.6 | -9
